Screening data as filed in PubChem BioAssay.
gsp agonist = gsp mutant agonism | Potency, µM (doses to about 76.9 µM), inactives show at the highest dose activation (cAMP increase), hits mostly activators | gsp mutant cells, cAMP HTRF, 30 min; control for the full effect not named in the record | AID 624287 | 0.13% of 340,000 active; active = well fitted activation curve with a large enough effect; inconclusive = small, poorly fitted or top-dose-only effect, or another doubt; inactive = no such curve, though single readings can be large or run the other way; cell line not stated here;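 also: phosphodiesterase inhibitor Ro 20-1724 added with compounds to block cAMP breakdown; potency is read from the fitted curve at half-maximal effect; nearly all actives have a fitted effect of over 60% in size; about a fifth of the inactives were tested at one dose only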
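Cells in DMEM/10% FBS with G418 were pretreated with compounds in DMSO plus […] (300 uM stock) for 30 min at 37C. cAMP was measured by HTRF (cAMP-d2 plus anti-cAMP antibody-K) after 30 min at room temperature.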
Menin-MLL FL inh = displaces fluorescein MLL peptide from human menin; Fluorescence polarization, fluorescein-MLL peptide displacement from menin; FP activity change, % at 61.4 µM; 290,000 tested, under 10 active; inconclusive = falling polarisation curve, or a change in total fluorescence; inactive = total fluorescence flat and polarisation flat or rising; no compound was filed as active; the % refers to the polarisation; negative = inhibition;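 also: % of control where 0% means no effect; inhibitors lower the polarisation; unlabelled MLL peptide was the positive control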
gsp antag = antagonizes gsp, the McCune-Albright syndrome mutation | gsp-mutant cells, cAMP HTRF, 30 min; control for the full effect not named in the record | Potency, µM (series often up to 76.9 µM), for the others: at the top dose activity change, negative = inhibition, actives largely listed as inhibitors | 0.4% of 340,000 active; active = falling curve of any shape with a large fitted effect; inconclusive = falling curve, mostly with a smaller effect; inactive = flat or rising curve; cell line not stated here;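 also: intracellular cAMP measured with PDE inhibitor Ro 20-1724 present during compound exposure; potency is read from the fitted curve at half-maximal effect; % is scaled to controls: 0 for no effect and ±100 for the full control effect; nearly all actives have a fitted effect of over 65% in size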
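Measurement of cellular cAMP by homogeneous time-resolved fluorescence following a 30 min compound exposure at 37C. The PDE inhibitor […] was present throughout; the assay buffer was DPBS with 0.05% BSA and 0.005% Tween 20.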
TRPML1 ag = human mucolipin-1 channel agonism; 0.12% of 410,000 active; TRPML1-expressing cells, Ca2+ dye fluorescence, FDSS; host cell line not named in the record; reference of the full effect not given here; Q9GZU1; activation, % (concentration not given with the values); in the data active = activation above about 50%; inconclusive = about 30% to 50%; inactive = below about 30%; also: 0% is about no effect; the text of the record puts the active cut at 80%
Target sequence (Q9GZU1 whole entry, looked up): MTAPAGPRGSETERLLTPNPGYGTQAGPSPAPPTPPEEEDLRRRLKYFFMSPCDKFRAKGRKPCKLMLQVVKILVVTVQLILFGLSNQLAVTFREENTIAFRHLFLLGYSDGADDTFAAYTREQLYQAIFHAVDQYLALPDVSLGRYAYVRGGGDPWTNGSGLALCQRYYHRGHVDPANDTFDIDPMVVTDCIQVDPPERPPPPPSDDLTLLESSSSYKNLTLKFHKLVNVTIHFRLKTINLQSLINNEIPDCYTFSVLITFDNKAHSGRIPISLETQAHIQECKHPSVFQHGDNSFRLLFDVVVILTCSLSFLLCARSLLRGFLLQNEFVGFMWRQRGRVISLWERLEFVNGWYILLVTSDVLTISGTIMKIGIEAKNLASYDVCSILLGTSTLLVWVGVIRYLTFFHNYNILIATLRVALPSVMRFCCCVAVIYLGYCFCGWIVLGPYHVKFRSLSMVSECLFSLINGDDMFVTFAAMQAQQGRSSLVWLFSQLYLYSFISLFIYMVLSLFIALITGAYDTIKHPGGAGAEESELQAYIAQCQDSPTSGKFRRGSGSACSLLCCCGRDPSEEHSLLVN
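TRPML1-DL cells, Tet-induced overnight (~16 h, 37 degrees C), loaded 45-90 min at room temperature with Ca8 no-wash calcium dye plus quencher. FDSS fluorescence: 10 s baseline, compound pin-transfer, 110 s agonist read, then EC80 54-4 (4uM final) and 110 s antagonist read.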
TRPML1 inh = inhibitors of human TRPML1 channel; TRPML1-inducible cells, Ca2+ dye fluorescence, FDSS; active compounds read low; inhibition of EC80 agonist-evoked calcium signal; 0.02% of 390,000 active; activity change, negative = inhibition, % (concentration not given with the values); AID 624415; Q9GZU1; in the data active means activity change below about -50%; inconclusive means about -30% to -50%; inactive means above about -30%;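 also: stimulus is agonist 54-4 at its EC80 concentration; % is scaled to controls: 0 for no effect and ±100 for the full control effect; the text of the record puts the active cut at -80%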
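Calcium fluorescence in TRPML1-DL cells induced overnight with Tet: a 110 s read after compound pin addition, then a 110 s antagonist read after challenge with 54-4 at 4 uM final (EC80).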
ClpP mod = qHTS Assay for Activators of ClpP. AID 651965, 2013. 1.9% of 340,000 active. ATP-dependent Clp protease proteolytic subunit (Bacillus subtilis (strain 168)), P80244. Potency, µM (titrated, usually from 57.5 µM), for inactives: at the highest dose activity change, negative = active. purified B. subtilis ClpP, FRET peptide cleavage, 20 min; active = well fitted falling curve with a large enough effect; inconclusive = small, poorly fitted or top-dose-only effect; inactive = no such curve, though single readings can be large or run the other way; also: potency is read from the fitted curve at half-maximal effect; the source files actives as falling curves though it sought activators and does not explain the sign; nearly all actives have a fitted effect of over 65% in size; many hits overshoot -100%
Target sequence (P80244 whole entry, looked up): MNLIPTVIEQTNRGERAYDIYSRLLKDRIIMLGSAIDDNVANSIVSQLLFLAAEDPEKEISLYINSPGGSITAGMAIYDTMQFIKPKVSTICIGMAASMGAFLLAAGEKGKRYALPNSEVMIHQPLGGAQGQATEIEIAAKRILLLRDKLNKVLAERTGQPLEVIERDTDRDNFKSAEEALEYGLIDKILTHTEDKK
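Purified B. subtilis ClpP, 10 microg/mL final in Tris/HCl pH8 with KCl, BSA, glycerol and Tween-20, cleaved an Abz/nitrotyrosine-quenched decapeptide. Fluorescence (ex 320, em 430) was read at 0 and 20 min at room temperature. Delta was normalized to 5.8 microM ADEP and DMSO/no-enzyme controls.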
The depositor's hits bear a star; ? = inconclusive; nt = no result given; & = joins results of further samples; [ ] = dose if it differs, or a comment.

SMILES	gsp agonist	Menin-MLL FL inh	gsp antag	TRPML1 ag	TRPML1 inh	ClpP mod
COC(=O)c1ccccc1NC(=O)CN(CCc1ccccc1)S(C)(=O)=O	4.9%	-2.3	-28.5%	-1.1	5.8	?
Cc1ccc(NC(=O)CSc2nnc(-c3cccnc3)o2)c(C)c1	-17.7%	nt	2.0%	1.4	3.1	1.5%
CC(=O)/C=C/c1ccc2ccccc2n1	-5.7%	4.3	5.1%	-0.4	9.2	-5.0%
COc1ccccc1CNc1ccc2nnc(CCNC(=O)c3ccc(C)cc3)n2n1	8.4%	0.8	-2.6%	0.9	-6.8	-6.6%
COc1ccc(C(C)=O)cc1CN1C(=O)NC(CC(C)C)C1=O (configuration not stated)	?	3.2	5.5%	0.3	-3.6	-1.0%
CC(=O)N1N=C(c2ccccc2)CC1c1cccc([N+](=O)[O-])c1 (configuration not stated)	-3.3%[15.4 µM]	0.8	1.9%	-0.5	3.3	?
CCC(C)[C@H](NC(=O)NCCCc1ccccc1)C(=O)OC (some centres not stated)	0.7%	2.5	-3.4%	0.9	21.3	-3.4%
CN(C)CCCNC(=S)N(CCN(C)C)Cc1cc2cc3c(cc2[nH]c1=O)OCCO3	-27.8%	-1.6	6.2%	-0.5	-5.3	nt
CCCCN(C(=O)C1CC(=O)N(c2ccc3c(c2)OCCO3)C1)c1c(N)n(CC(C)C)c(=O)[nH]c1=O (configuration not stated)	9.1%[15.4 µM]	nt	8.7%	-0.2	-5.4	nt
CC(C(=O)O)N(c1ccccc1Cl)S(C)(=O)=O (configuration not stated)	1.7%	nt	5.2%	0.0	18.2	-1.7%
CCOC(=O)N1CCN(CC(=O)Nc2nc3ccccc3s2)CC1	-12.0%[15.4 µM]	-0.5	-7.1%	-0.5	2.4	-1.9%
Cc1cccc(-c2oc3ccc(-c4ccc5c(c4)OCO5)cc3c2-c2ccc(OC3CCCCO3)cc2)c1 (configuration not stated)	-50.4%[inhibitor]	nt	5.6%	-0.3	17.0	4.1%
Nc1nc(C2CCOCC2)cs1	0.4%	-1.5	7.7%	4.0	6.3	-0.3%
CCCSc1nc(=O)c2c(n1C)NC(=O)CC2c1cccc(F)c1F (configuration not stated)	nt	nt	nt	-0.5	-4.7	0.5%
CCOC(=O)c1sc2ncn(CC(=O)Nc3ccc(OC)c(Cl)c3)c(=O)c2c1C	nt	nt	nt	0.0	20.7	3.7%
O=C(NC(Cc1ccccc1)C(=O)O)/C(=C/c1ccccc1)NC(=O)c1cccc(Br)c1 (configuration not stated)	-3.3%[15.4 µM]	4.6	-13.6%	0.3	7.5	nt
CC(=O)Nc1ccc2nc(NC(=O)COc3ccccc3C)sc2c1	13.6%[15.4 µM]	5.1	-7.2%	-0.7	9.8	-0.9%
Nc1cc(S(=O)(=O)Nc2ccccc2Cl)ccc1N1CCCC1	?	0.5	-1.5%	1.5	32.6	-3.4%
CC(C#N)(NC(=O)CN1CCN(S(=O)(=O)c2cc(C(F)(F)F)ccc2Cl)CC1)C1CC1 (configuration not stated)	-14.8%	nt	0.0%	-0.2	-15.0	-2.4%
CC(=O)c1ccc2c(c1)CC(C)C(=O)N2C (configuration not stated)	24.5%	-4.2	3.3%	0.1	35.4	-14.6%
O=C(Cn1c(COc2ccccc2)nc2ccccc21)Nc1cc(Cl)cc(Cl)c1	-24.7%	7.7	6.3%	-0.3	-5.4	5.5%
CCn1c(NCc2ccc(OC)cc2)nc2ccccc21	4.1%	-1.8	9.1%	0.8&-0.4	-1.1&9.5	-1.9%&-1.1%
Cc1ncccc1C(=O)N1CCCC(CCC(=O)N2CCN(c3ccccn3)CC2)C1 (configuration not stated)	37.9%	5.4	-9.5%	-0.8	-4.3	-21.2%
COc1ccc(N(C)S(=O)(=O)c2cccc(C(=O)NCc3ccc(C)cc3)c2)cc1	-35.1%[inhibitor]	nt	-27.0%	3.1	22.7	0.2%
c1ccn2c(CNc3ncnc4sccc34)nnc2c1	?	6.6	17.0%	0.0	7.7	-2.2%
(continued)
SMILES	gsp agonist	Menin-MLL FL inh	gsp antag	TRPML1 ag	TRPML1 inh	ClpP mod
O=C(O)/C=C/c1cn(-c2ccccc2)nc1-c1cccs1	10.5%	10.7	-25.4%	-0.5	7.1	3.9%
CCCC(=O)NCCCCNC(=O)CCC	-27.7%	5.4	-7.4%	0.8	52.3	-0.2%
Cc1ccc(S(=O)(=O)Nc2cccc(C(=O)NCC3CCCO3)c2)cc1F (configuration not stated)	-8.1%	nt	-1.2%	0.0	-7.6	-1.3%
O=C(C=Cc1ccco1)c1ccc2ccccc2c1	-2.4%	nt	-17.8%	3.6	24.9	-3.6%
NCCc1nnc(SCc2c(Cl)cccc2Cl)o1	-68.4%[inhibitor]	-3.6	9.4%	4.2	-5.9	0.8%
O=C(O)c1ccc(CNCc2ccccc2Cl)cc1	2.7%	-0.9	5.0%	-0.4	13.0	0.8%
Cc1ccc(C(C(=O)NC2CCCC2)N(C(=O)Cc2cccs2)c2ccc3c(c2)OCCO3)cc1 (configuration not stated)	-4.9%	-2.9	-2.6%	2.2	-10.4	0.7%
COCCNC(=O)c1ccc2c(c1)NC(=O)C(CS(=O)(=O)Cc1ccc(F)cc1Cl)N2 (configuration not stated)	nt	nt	nt	0.2	-10.9	15.8µM*
Cn1c(-c2ccc(C(C)(C)C)cc2)n[nH]c1=S	19.5%	2.6	-16.0%	2.3	3.0	-18.6%
CCNc1nc(NCC)n2c(SCC(=O)Nc3ccccc3C(F)(F)F)nnc2n1	-65.4%	nt	-3.7%	0.1	5.7	-2.0%
O=C(CN1CCN(c2ccc(F)cc2)CC1)N1CCOCC1	-32.2%[inhibitor]	0.3	7.3%	0.7	4.9	-5.3%
Cc1cc(Cl)c(S(=O)(=O)N2CC(C)OC(C)C2)cc1OCC(N)=O (configuration not stated)	-11.1%	4.4	14.0%	-0.7	3.6	0.6%
CCOc1ccccc1/C=C(/C#N)C(N)=O	-0.6%	?	-5.4%	1.9	-11.4	0.6%
C/C(=N\NC(=O)Cc1ccc(O)cc1)c1cccnc1	-6.8%	3.2	0.0%	1.5	10.0	0.3%
CS(=O)(=O)N(CCc1ccccc1)CC(=O)N1CCCC1	25.0%	-0.4	11.6%	-0.3	-11.5	nt
NC(=O)COC(=O)c1ccccc1OCc1ccc(Cl)cc1	7.3%[15.4 µM]	-1.9	-7.5%	1.8	32.1	nt
Nc1nonc1-n1nnc(C(=O)N/N=C/c2cc(Br)ccc2O)c1CSC1=NCCS1	-0.5%	8.5	?	1.7	13.0	4.8%
COc1ccc(N2CCN(C(=O)c3ccc4c(=O)n(CC5CCCO5)c(=O)[nH]c4c3)CC2)cc1 (configuration not stated)	27.6%	3.3	-16.6%	0.3	-4.8	-1.6%
COc1ccc(CCNC(=O)Cn2c(=O)oc3cc(Cl)ccc32)cc1OC	-5.7%	3.8	-10.6%	1.4	-2.4	0.6%
Cc1oc2c(CN3CCCCC3)c(O)ccc2c(=O)c1-c1ccc(Cl)cc1	?	6.4	4.9%	0.8	-15.7	nt
O=C(NCc1ccc(C(=O)O)cc1)OCc1ccccc1	4.8%[15.4 µM]	-3.0	-12.2%	-0.5	-0.3	nt
CCc1c(C)nc(SCC(=O)Nc2ccc(Br)cc2)[nH]c1=O	8.7%	-0.9	6.4%	-0.6	-5.9	-3.7%
Cc1nc2ccccc2nc1N1CCC(C)CC1	-11.7%	2.5	4.6%	0.7	-3.8	-0.6%
Fc1ccccc1N1CCN(c2ncnc3onc(-c4cccc(Cl)c4)c23)CC1	nt	nt	nt	0.1	-3.3	?
Cc1cc(/C=C2/SC(=O)N(CC(=O)N3CCOCC3)C2=O)c(C)n1-c1ccccc1F	1.5%	6.8	14.5%	1.1	24.5	0.8%
Carrying on:
SMILES	gsp agonist	Menin-MLL FL inh	gsp antag	TRPML1 ag	TRPML1 inh	ClpP mod
Clc1ccc(N(CC2CO2)CC2CO2)cc1 (configuration not stated)	-28.3%	nt	-8.8%	-0.4	-3.6	1.5%
CCCC1NC(=O)c2cc3ccccc3cc2-n2c1nc1cc(F)ccc1c2=O (configuration not stated)	17.5%	nt	nt	3.1	28.5	-7.2%
Cc1ccc(C(=O)Nn2c(N)c(S(=O)(=O)c3ccc(C)cc3)c3nc4ccccc4nc32)cc1	0.5%	-0.2	0.7%	8.6	7.0	28.2µM*
CCOC(=O)C1CCN(C(=O)CCc2c(C)nc3c(-c4ccc(F)cc4)c(C)nn3c2C)CC1	-13.6%	-2.2	0.2%	-1.3	-0.4	-10.8%
CC1CCN(S(=O)(=O)c2ccc3c(ccc(=O)n3CC(=O)NCc3ccccc3)c2)CC1	nt	nt	nt	0.2	15.1	-2.3%
CCn1c(=O)c2cc(S(=O)(=O)NCCOc3ccccc3)ccc2n(CC)c1=O	-4.0%	-0.3	-21.4%	-0.9	5.9	-4.0%
COc1ccc(NC(=O)c2cc(S(=O)(=O)N3CCS(=O)(=O)CC3)ccc2Cl)cc1	25.6%	1.3	5.9%	1.0	-13.5	0.9%
COc1cc(C(=S)N2CCOCC2)ccc1OC(=O)c1cc([N+](=O)[O-])c(C)c([N+](=O)[O-])c1	3.8%	-0.7	-1.0%	-0.8	10.8	0.4%
Cc1cc(C)c(O)c(CN(C)Cc2cc(Cl)cc(Cl)c2O)c1	21.5%	nt	-3.4%	-0.3	-27.8	nt
N=c1n(CC(=O)c2ccc([N+](=O)[O-])cc2)c2ccccc2n1Cc1ccccc1	-6.3%	3.4	10.4%	-0.4	5.0	0.4%
CCCCC(CC)CNC(=O)CN(C)S(=O)(=O)c1ccc2c(c1)c(=O)n(C)c(=O)n2C (configuration not stated)	nt	nt	nt	0.7	0.0	-1.7%
O=S(=O)(CCc1nc2ccccc2o1)c1ccc2ccccc2c1	-61.6%	3.6	-3.1%	-0.1	-2.3	-0.3%
CCOc1ccc(-c2c(=O)n(OCC)c3ccccc3[n+]2[O-])cc1	-10.8%	0.7	3.7%	nt	nt	-1.6%
O=C(NCc1ccncc1)C(=O)Nc1nccs1	-32.8%[inhibitor]	2.1	11.4%	0.4	30.9	nt
O=C(NOC(=O)c1c(F)cccc1Cl)c1ccc(Cl)c(Cl)c1	11.3%[15.4 µM]	-7.8	-1.9%	-1.0	3.1	-0.3%
O=S(=O)(Nc1ccc(-c2ccc(N3CCCCCC3)nn2)cc1)c1cccc(C(F)(F)F)c1	nt	nt	nt	0.7	56.6	-13.0%
CC(C)(C)Cc1nnc(NC(=O)c2ccco2)s1	18.0%	2.8	-12.7%	0.7	-4.7	-1.0%
O=C(CCn1c(=O)oc2ccc(Cl)cc21)N1CCN(Cc2ccccc2)CC1	?	4.0	1.9%	1.0	20.7	-0.4%
